From PubChem BioAssay
D2 ag: human D2 receptor agonism in beta-arrestin assay; activation, % (test concentration not listed); P14416; 360,000 tested, 0.084% active; DiscoveRx PathHunter D2 beta-arrestin, luminescence, 90 min; 100% = 57 uM dopamine signal; in the data active = activation above about 40%; inconclusive = about 15% to 40%; inactive = below about 15%; note: compound concentration not given in the record; the text of the record calls up to 30% inactive
Target sequence (P14416 whole entry, looked up): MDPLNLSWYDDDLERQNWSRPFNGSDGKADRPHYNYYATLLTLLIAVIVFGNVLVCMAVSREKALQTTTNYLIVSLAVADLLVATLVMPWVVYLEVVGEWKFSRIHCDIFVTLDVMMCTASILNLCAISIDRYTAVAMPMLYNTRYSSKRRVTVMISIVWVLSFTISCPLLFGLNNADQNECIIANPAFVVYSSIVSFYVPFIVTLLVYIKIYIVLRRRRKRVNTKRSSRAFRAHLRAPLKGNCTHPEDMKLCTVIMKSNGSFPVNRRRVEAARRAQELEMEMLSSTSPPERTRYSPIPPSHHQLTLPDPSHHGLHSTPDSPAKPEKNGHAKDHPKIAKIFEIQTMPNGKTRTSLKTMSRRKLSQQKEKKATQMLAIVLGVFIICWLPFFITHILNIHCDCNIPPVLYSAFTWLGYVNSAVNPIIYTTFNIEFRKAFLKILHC
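Agonist mode: compounds alone added to overnight-plated D2 PathHunter cells for 90 min at 37 C, with 57 uM final dopamine (EC100) defining full response. Beta-arrestin recruitment detected by chemiluminescent reagent, read after 1 h at ambient temperature.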
PINK1 modulator: changes PINK1 expression; 410,000 tested, 0.2% active; AID 624263; PINK1 immunofluorescence, high-content cytometry, 24 h; Potency, µM (doses to about 76.6 µM), for the others: at the top dose activation (PINK1 increase), actives largely listed as activators; active = well fitted activation curve with a large enough effect; inconclusive = small, poorly fitted or top-dose-only effect; inactive = flat fitted curve, though single readings scatter; cell line not stated here;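 note: potency is the fitted concentration of half-maximal effect; % of control where 0% means no effect; nearly all actives have a fitted effect of over 65% in size; a mitochondrial uncoupler was the plate control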
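Stable cell line, 250 cells/well, 12 h attachment; compounds pinned at 5 concentrations, 24 h; CCCP control. Fixed with nuclear dye, primary antibodies 12 h at 10 degrees C, secondary plus cell stain; laser-scanning cytometer read.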
CtBP-E1A inh: blocks the CtBP interaction with E1A | 340,000 tested, 0.49% active | activity change, % (concentration not given with the values) | AlphaScreen GST-E1A/His-CtBP binding, 1536-well; hits give low values; control for the full effect not named in the record; in the data active means activity change below about -65%; inconclusive means about -30% to -65%; inactive means above about -30%; note: % is set by controls: 0 for no effect and ±100 for the full control effect
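Steps: dispense buffer (Tris pH 8.0, NaCl 300 mM, TCEP 1 mM, BSA, Tween 20); add 5X protein mix (GST-E1A, His-CtBP, 125 nM each); pin 23 nL compound; 2 h at 37 °C, dark; add 5X beads (50 ug/mL); 1 h; read.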
Six1-Eya2 blk: Six1/Eya2 interaction inhibition; AID 651725; Q15475+O00167; AlphaScreen GST-Six1/His-Eya2 binding, biochemical; hits give low values; control for the full effect not named in the record; 360,000 tested, 0.56% active; activity change, % (no concentration beside the values); in the data active = activity change below about -65%; inconclusive = about -30% to -65%; inactive = above about -30%; note: % is set by controls: 0 for no effect and ±100 for the full control effect; compound concentration not given in the record
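AlphaScreen with GST-Six1 and His-Eya2 (5X mix: 250 nM and 500 nM), glutathione donor and nickel acceptor beads; buffer 50 mM Tris pH 8.0, 300 mM NaCl, 1 mM TCEP; 1 h at 37 C in the dark.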
TRPML1 ag: human mucolipin-1 channel agonism. Q9GZU1. TRPML1-expressing cells, Ca2+ dye fluorescence, FDSS; host cell line not named in the record; reference of the full effect not given here. activation, % (no concentration beside the values). 410,000 tested, 0.12% active. AID 624414; in the data active = activation above about 50%; inconclusive = about 30% to 50%; inactive = below about 30%; note: 0% is about no effect; the text of the record puts the active cut at 80%
Target sequence (Q9GZU1 whole entry, looked up): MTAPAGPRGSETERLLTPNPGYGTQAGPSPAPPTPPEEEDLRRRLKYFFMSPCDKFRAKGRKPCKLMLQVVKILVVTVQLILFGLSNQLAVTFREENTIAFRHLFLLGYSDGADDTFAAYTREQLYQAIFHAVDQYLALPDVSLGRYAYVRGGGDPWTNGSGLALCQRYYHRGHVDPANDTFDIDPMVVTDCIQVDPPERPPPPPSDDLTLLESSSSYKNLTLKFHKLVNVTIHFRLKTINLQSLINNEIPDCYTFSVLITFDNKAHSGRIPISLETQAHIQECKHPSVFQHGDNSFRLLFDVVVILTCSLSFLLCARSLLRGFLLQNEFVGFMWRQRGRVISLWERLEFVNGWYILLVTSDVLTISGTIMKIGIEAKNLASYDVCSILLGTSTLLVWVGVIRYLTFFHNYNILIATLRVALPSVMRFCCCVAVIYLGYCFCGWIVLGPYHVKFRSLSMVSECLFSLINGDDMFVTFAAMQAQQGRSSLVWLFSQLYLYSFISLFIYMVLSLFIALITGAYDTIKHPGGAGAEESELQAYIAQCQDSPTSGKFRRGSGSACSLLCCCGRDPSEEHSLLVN
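Agonist activity was taken from a 110 s kinetic Ca2+ dye read on the FDSS after pinning compounds onto TRPML1-DL cells. The cells were seeded at 1,500/well with Tet inducer, incubated about 16 h, then dye-loaded at room temperature.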
D2 PAM: potentiates the human D2 dopamine receptor allosterically; potentiation, % (concentration not given with the values); 360,000 tested, 0.23% active; DiscoveRx D2 beta-arrestin cells, luminescence, 90 min; 100% = 57 uM dopamine signal; AID 624464; active = potentiation of 50% or more; inconclusive = 30% to 50%; inactive = 30% or less;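 note: compound concentration not given in the record; tested on top of an EC20 dose of dopamine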
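PathHunter beta-arrestin assay in DiscoveRx D2 cells. Compounds were added with an EC20 of dopamine (50 nM final) for 90 min at 37 deg C. Luminescence was read 1 h after detection reagent, with 57 uM dopamine as the EC100 control.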
The depositor's hits bear a star; ? = inconclusive; . = no result given; & = joins results of further samples; [ ] = another dose, or the depositor's remark.

SMILES	D2 ag	PINK1 modulator	CtBP-E1A inh	Six1-Eya2 blk	TRPML1 ag	D2 PAM
COc1ncccc1C(=O)N1CCCC(C(=O)c2cc(F)ccc2F)C1 (configuration not stated)	-3.5	0.1%	3	-1	2.2	-2
CCCc1n[nH]c2c1C(=O)CC(C)(C)C2	-1.3	2.4%	-12	4	0.8	-3
Fc1ccc(CNc2cnccn2)cc1	-1.2	12%[38.3 µM]	7	0	0.1	-4
COc1ccc(CN2CCOCC2)cc1Br	-1.5	4.2%[38.3 µM]	2	2	-0.1	-8
CCNc1sc(S(C)(=O)=O)nc1S(=O)(=O)c1ccc(Cl)cc1	-2.0	-1.0%	4	-1	0.1	0
COCCCNS(=O)(=O)c1ccc(OC)c(Cl)c1Cl	-2.1	3.0%[38.3 µM]	2	2	0.2	-6
CN(C)Cc1c(C(=O)N/N=C/c2cccc(OCc3ccccc3)c2)nnn1-c1nonc1N	4.0	6.5%	-13	-3	0.9	8
O=C1c2ccccc2C(=O)N1CCCCN(C(=O)c1cc([N+](=O)[O-])cc([N+](=O)[O-])c1)c1ccc(Cl)cc1	?	-2.0%	-18	-20	0.0	19
Cc1cccc(C)c1N1C(=O)c2cccc([N+](=O)[O-])c2C1=O	5.2	-2.5%	3	-11	-0.5	83*
S=c1[nH]ncn1NCc1ccc(Cl)cc1Cl	-3.5	-0.4%	10	6	-0.3	-12
Cc1ccc2[nH]c(=O)c(CN(Cc3ccco3)C(=O)N3CCOCC3)cc2c1	-1.2	-1.1%	-18	-2	0.0	-4
CCOC(=O)CCSc1nc(C)c2cc(OC)ccc2n1	3.2	-5.5%[38.3 µM]	1	10	-0.7	0
Cc1ccc2c(c1)N(CC(=O)NC1CCCC1)C(=O)C(C)O2 (configuration not stated)	0.8	0.3%	-8	3	-0.8	-3
CCOC(=O)c1[nH]c(C)c(C(=O)NC(C)(C)C)c1C	0.3	-1.1%	8	7	-0.8	-12
O=C(CSc1n[nH]c(=O)[nH]c1=O)N/N=C/C=C/c1ccccc1	-2.2	1.4%	.	2	0.1	-10
CNC(=O)Nc1ccc(Cn2cc(C(F)(F)F)ccc2=O)cc1	-1.1	1.2%	9	3	-0.7	-5
CC(C)C[C@H]1COCCS(=O)(=O)N1Cc1ccc(Cl)c(Cl)c1	-3.5	8.5%	6	2	-0.1	-13
Cc1ccc(S(=O)(=O)NCC(=O)OCN2C(=O)c3ccccc3C2=O)cc1	-3.8	4.7%	4	-3	-0.7	-20
COc1ccc(-c2ccc(CNCCCN3CCOCC3)o2)cc1Cl	-3.5	-0.9%	5	-4	0.8	-25
CC(OC(=O)/C=C/c1ccc(Br)cc1)C(=O)N1CCOCC1 (configuration not stated)	3.3	-1.2%	?	-2	-0.2	-2
Cn1ccnc1SCC(=O)Nc1ccc2c(c1)OCCO2	-1.4	0.6%	1	5	-0.6	-3
CCCCOC(=O)c1ccc(NC(=O)CSc2nnnn2C)cc1	2.2	3.6%	4	24	-0.4	2
O=C(COC(=O)c1n[nH]c2ccccc12)NC(=O)NCc1ccco1	-1.9	0.5%	-6	-8	2.4	2
Clc1ccc(-c2cn(-c3ccc(Cl)cc3)c3[n+]2CCCCC3)cc1	-3.9	-1.0%	0	6	-0.7	-3
Cc1c(C)n(CC(O)CSc2ccccc2)c2ccccc12 (configuration not stated)	.	7.8%	-8	-11	13	.
Cc1cccc(NC(=O)N2CCC(NC(=O)c3ccco3)CC2)c1	-4.8	-0.3%	0	-4	1.7	-6
O=C(C1=NN(c2ccccc2)C2C(=O)N(c3ccccc3)C(=O)C12)c1ccccc1 (configuration not stated)	-3.0	-1.3%	-2	30	6.2	-3
O=C(/C=C/c1ccc(OCc2cccc(Cl)c2)cc1)N1CCOCC1	5.9	-1.3%	11	-4	2.0	-4
O=C(Nc1ncc([N+](=O)[O-])s1)C1CC(=O)N(c2ccc(F)cc2)C1 (configuration not stated)	-4.6	2.1%	3	0	0.0	-7
COc1ccc(C2CC(c3ccc(C)o3)=NN2C(C)=O)cc1 (configuration not stated)	-1.7	0.1%	-4	3	-0.3	-2
CCOc1ccc(NC(=O)c2ccc(NC(=O)c3ccccc3Br)cc2)cc1	2.1	7.6%	5	2	0.8	-1
Fc1cccc2sc(Nc3nc4cc5c(cc4s3)OCCO5)nc12	-0.3	3.5%	-10	-4	1.1	-10
CCOC(=O)C1=C(O)C(=O)N(Cc2ccccc2)C1	-2.4	2.1%	-1	0	.	7
COc1ccc(OC)c(Nc2nc(C3CC3)nc3c2nnn3Cc2ccccc2)c1	-1.3	12%	3	1	1.8	5
Cc1ccc(-c2ccc(=O)n(CC(=O)NCCN(CC(C)C)CC(C)C)n2)cc1	-8.5	-0.4%	-4	-13	.	-8
CCS(=O)(=O)NCCc1ccc(OC)c(OC)c1	-0.6	-1.2%	2	5	-0.5	7
COc1ccc(N2CCN(C(=O)COC(=O)CNC(=O)c3ccc(Cl)cc3Cl)CC2)cc1	3.5	-0.7%	12	-2	0.2	7
O=C(Nc1ccccc1C(=O)Nc1cccnc1)c1ccccc1	-0.6	0.0%	-4	1	-1.4	-3
CCN(CC(=O)Nc1ccc(NC(C)=O)cc1)C(=O)/C=C/c1cn(-c2ccccc2)nc1-c1ccc(C)cc1	-3.2	3.8%	-5	-14	0.3	-2
COCCN(C(=O)CNC(=O)c1ccco1)C(C(=O)NC1CCCC1)c1cccc(OC)c1 (configuration not stated)	-0.1	-1.4%	4	11	0.2	-5
CC(CNC(=O)CN1C(=O)CCSc2ccccc21)c1ccccc1 (configuration not stated)	3.1	0.1%	3	3	-0.5	2
CCC(C)N1CC(O)=C(c2nc3ccccc3[nH]2)C1=N (configuration not stated)	-1.1	-2.6%[38.3 µM]	1	-3	1.9	-9
O=C(Nc1ncccc1Cl)c1ccc2c(c1)OCCO2	-1.1	-1.3%	15	-15	0.0	-7
O=C(CCC1CCCCC1)Nc1nnc(C(F)(F)F)s1	-4.6	3.6%	-1	5	1.1	-5
Cc1cc(C)nc(NNS(=O)(=O)c2c(F)cc(F)cc2Br)n1	-15	0.6%	1	-4	0.4	-34
O=C(O)C(CCC(C(=O)O)c1ccccc1)c1ccccc1 (configuration not stated)	-0.4	0.2%	2	11	-0.3	-1
O=C1[C@@H]2Cc3c([nH]c4ccccc34)C(c3ccc([N+](=O)[O-])cc3)N2C(=O)CN1C1CC1 (some centres not stated)	-6.1	2.0%	.	-1	0.0	-3
O=C(NC(=S)Nc1cc(C(F)(F)F)ccc1N1CCOCC1)c1sc2ccccc2c1Cl	-2.9	4.3%	1	-1	0.7	0
CCN(CC)c1ccc(N=Cc2ccc([N+](=O)[O-])o2)cc1	6.2	9.5%	-23	?	0.9	?
COc1ccc(NC(=O)c2oc3ccccc3c2NC(=O)c2ccc3c(c2)OCO3)cc1	-3.0	4.6%[38.3 µM]	4	2	-0.3	-10
COc1ccccc1CCNC(=O)C(=O)NCCC1CCCCN1S(=O)(=O)c1ccccc1 (configuration not stated)	4.2	-0.4%	-2	-4	-0.2	-2
COCCCNCCOCCOc1ccccc1-c1ccccc1	-4.3	0.0%	3	3	-0.9	-36
Cc1ccc(-n2nc(C(=O)O)cc2-c2ccccc2Cl)cc1	9.4	-1.0%	7	3	1.9	-1
O=C(CCCn1c(=S)[nH]c2ccccc2c1=O)N1CCN(c2cccc(Cl)c2)CC1	-2.2	.	4	1	-0.4	-12
CCOC(=O)N1CCN(C(=O)c2ccc3c(c2)sc2nc(-c4ccccc4)cn23)CC1	3.0	-2.3%	-6	-1	0.5	6
COc1cccc(-n2c(=S)[nH]c3c(oc4ccccc43)c2=O)c1	-0.4	-0.4%	.	1	1.1	-3
COC(=O)COc1ccc(Oc2cc(C)nc(SC)n2)nn1	-0.7	18%[38.3 µM]	11	2	0.1	-9
CC(=O)Nc1ccc(NC(=O)CNS(=O)(=O)c2ccc(C)cc2)cc1	-1.5	.	7	2	-0.4	2
COC(=O)c1ccc(OCCN2CCCCCC2)cc1	3.9	-0.4%	1	-5	-0.5	-22
CCOC(=O)C(Cc1ccc(O)cc1)NC(=O)CNC(=O)C1CCCN1C(=O)OC(C)(C)C (configuration not stated)	-2.4	1.8%	-9	0	0.6	0

3 structures from above, sorted by molar mass, rising:
SMILES	D2 ag	PINK1 modulator	CtBP-E1A inh	Six1-Eya2 blk	TRPML1 ag	D2 PAM
COc1cccc(-n2c(=S)[nH]c3c(oc4ccccc43)c2=O)c1	-0.4	-0.4%	.	1	1.1	-3
O=C(COC(=O)c1n[nH]c2ccccc12)NC(=O)NCc1ccco1	-1.9	0.5%	-6	-8	2.4	2
CCOc1ccc(NC(=O)c2ccc(NC(=O)c3ccccc3Br)cc2)cc1	2.1	7.6%	5	2	0.8	-1

More records follow.
SMILES	D2 ag	PINK1 modulator	CtBP-E1A inh	Six1-Eya2 blk	TRPML1 ag	D2 PAM
Nc1nc2ncccc2cc1C(=O)NCCc1cccs1	.	0.2%	9	4	-0.2	.
COC(=O)c1ccc(Cn2cc(/C=C\[N+](=O)[O-])c3ccccc32)o1	1.4	-1.5%	-9	-2	0.5	-5
O=C1c2cccc3cc([N+](=O)[O-])cc(c23)C(=O)N1CC1CCCO1 (configuration not stated)	?	0.2%	-1	-20	-0.6	4
CN1CCN(S(=O)(=O)c2ccc(NC(=S)NC(=O)C3CCCCC3)cc2)CC1	-1.4	-0.9%	-6	-15	0.0	-5
COc1cccc(CN(C)C(=O)C2CCN(S(=O)(=O)c3cccs3)CC2)c1OC	2.5	1.8%	7	3	0.0	2
COc1cc(C2(O)CCCCC2C)cc(OC)c1OC (configuration not stated)	-5.9	12%	-1	0	0.1	-25
COc1ccc(CNS(=O)(=O)c2c(C(=O)N3CCCCCC3)c(C)n(C)c2C)cc1	-0.2	-1.4%	-3	2	-0.5	-4
COC(=O)c1ccc(NC(=O)CSc2nncc3ccc(OC)c(OC)c23)cc1	-0.3	18%	-2	7	0.5	13
O=C(NCCO)C(=O)Nc1cc2c3c(c1)CCC(=O)N3CCC2	2.5	0.6%	.	-1	-0.4	2
CC(C)C(=O)NCCSc1c[nH]c2ccccc12	-1.3	1.1%	-1	1	0.0	-3
O=[N+]([O-])c1ccccc1/C=N/Nc1nnc(-c2ccccc2)c(-c2ccccc2)n1	1.2	6.5%	-6	-1	-0.4	-3
CCNc1nc(N)nc(-c2cc(Cl)ccc2OC)n1	1.4	2.7%	1	-2	0.6	-6
CCN1CCN(CC(=O)Nc2ccc3c(c2)OCO3)C(=O)C1=O	1.0	1.4%	28	25	-1.0	-1
CCCN1C(=O)C2(SC(NC(C)=O)=NN2C(C)=O)c2cc(C)ccc21 (configuration not stated)	4.1	4.0%	19	-3	0.2	8
CCOC(=O)c1oc2ccc(S(=O)(=O)n3nc(-c4cc(OC)c(OC)c(OC)c4)cc3N)cc2c1C	-2.9	3.5%&3.4%	1	-6	0.1&-0.5	-5

Entries of single compounds from above:
CN1CCN(S(=O)(=O)c2ccc(NC(=S)NC(=O)C3CCCCC3)cc2)CC1 is listed as D2 ag = -1.4; PINK1 modulator = -0.9%; CtBP-E1A inh = -6; Six1-Eya2 blk = -15; TRPML1 ag = 0.0; D2 PAM = -5
O=C(NCCO)C(=O)Nc1cc2c3c(c1)CCC(=O)N3CCC2 is listed as D2 ag = 2.5; PINK1 modulator = 0.6%; CtBP-E1A inh = .; Six1-Eya2 blk = -1; TRPML1 ag = -0.4; D2 PAM = 2
